Bioassay records (PubChem BioAssay)
Vaccinia Venus: inhibitors of vaccinia virus (Venus reporter); AID 720580; Vaccinia virus Venus reporter expression, fluorescence; Potency, µM (doses to about 36.5 µM), for inactives: top-dose activity change, negative = inhibition, hits mostly inhibitors; hit rate 0.46% among 330,000; active means well fitted inhibition curve with a large enough effect; inconclusive means small, poorly fitted or top-dose-only effect; inactive means no such curve, though single readings can be large or run the other way; tested in A549 cells; also: nearly all actives have a fitted effect of over 30% in size; inactives centre near -10
Vaccinia mCherry: inhibitors of vaccinia virus infection (mCherry reporter signal) | hit rate 0.63% among 310,000 | Vaccinia virus mCherry reporter infection, fluorescence; about a quarter of the inactives have no number | Potency, µM (doses to about 36.5 µM), for inactives: top-dose activity change, negative = inhibition, actives largely listed as inhibitors; active = well fitted inhibition curve with a large enough effect; inconclusive = small, poorly fitted or top-dose-only effect; inactive = no such curve, though single readings can be large or run the other way; tested in A549 cells; also: nearly all actives have a fitted effect of over 35% in size; inactives centre near -10
* = called active by the depositor; & = joins results of further samples; [ ] = dose if it differs, or a comment. % is scaled to controls: 0 for no effect and ±100 for the full control effect; potency is read from the fitted curve at half-maximal effect.

COc1ccc(C)cc1NS(=O)(=O)c1ccc2c(c1)n(C)c(=O)n2C was read as Vaccinia Venus -16.5%&-17.8% and Vaccinia mCherry -15.6%&-14.7%.
`CC(=O)c1cccc(NC(=O)c2sc3nc4n(c(=O)c3c2C)CCCCC4)c1` gave Vaccinia Venus -10.1% and Vaccinia mCherry -10.1%.
Screening Cc1ncc(CO)c(/C=N/NC(=S)Nc2ccc(F)cc2)c1O returned Vaccinia Venus -26.2% and Vaccinia mCherry inconclusive.
CCOC(=O)N1CCN(S(=O)(=O)N2CCCC(C(=O)NCc3ccccc3OC)C2)CC1 (centres undefined) was read as Vaccinia Venus -13.9%&-9.7% and Vaccinia mCherry -6.4%.
CCc1cc2c(Sc3nc4ccccc4s3)ncnc2s1 was read as Vaccinia Venus -18.7% and Vaccinia mCherry -10.3%[1.46 µM].
`CCOc1ccc(CCNC(=O)c2cc3c(-c4ccccc4F)nn(C)c3s2)cc1OCC` gave Vaccinia Venus inconclusive and Vaccinia mCherry inconclusive.
Screening Cc1ccc(-c2c3c(=O)n(C)c(=O)n(C)c3cn2-n2cnnc2)cc1 returned Vaccinia Venus -1.4%.
For COc1ccc(-n2nc(C(=O)NCC(=O)NCCC3=CCCCC3)c3ccccc3c2=O)cc1OC the results were Vaccinia Venus -5.6% and Vaccinia mCherry inactive.
For COc1ccc2oc(=O)cc(CN3CCN(c4ccccc4F)CC3)c2c1 the results were Vaccinia Venus inconclusive and Vaccinia mCherry -24.2%.
`CC(=O)OCC(=O)NCCCOc1cccc(CN2CCCCC2)c1` gave Vaccinia Venus -16.3% and Vaccinia mCherry -14.3%.
Screening COc1ccc2c(c1)OCC(O)(c1ccccc1)C2=O (centres undefined) returned Vaccinia Venus -9.2% and Vaccinia mCherry -0.1%.
COc1ccccc1NC(=O)CSc1nc2sc(C)c(C)c2c(=O)n1C was read as Vaccinia Venus 10.0% and Vaccinia mCherry -1.4%.
`Cc1ccc(CNC(=O)CN(c2ccc(C(C)C)cc2)S(=O)(=O)c2c(C)n[nH]c2C)cc1` gave Vaccinia Venus -11.1% and Vaccinia mCherry -19.9%.
`CSc1ccccc1OCc1cc(C(=O)NC2CCOC2)no1` (centres undefined) gave Vaccinia Venus -10.9%[7.34 µM] and Vaccinia mCherry -9.1%[7.34 µM].
For O=S1(=O)CCN2C=Nc3sc4c(c3C2=N1)CCCC4 the results were Vaccinia Venus -9.2% and Vaccinia mCherry -27.3%.
Screening COc1ccc(NC(=O)c2ccccc2C)cc1 returned Vaccinia Venus 2.8% and Vaccinia mCherry -5.4%.

Arranged by molecular weight (low to high): 8 of the compounds above.
Screening COc1ccc(NC(=O)c2ccccc2C)cc1 returned Vaccinia Venus 2.8% and Vaccinia mCherry -5.4%.
Screening COc1ccc2c(c1)OCC(O)(c1ccccc1)C2=O (centres undefined) returned Vaccinia Venus -9.2% and Vaccinia mCherry -0.1%.
For O=S1(=O)CCN2C=Nc3sc4c(c3C2=N1)CCCC4 the results were Vaccinia Venus -9.2% and Vaccinia mCherry -27.3%.
CCc1cc2c(Sc3nc4ccccc4s3)ncnc2s1 was read as Vaccinia Venus -18.7% and Vaccinia mCherry -10.3%[1.46 µM].
`CC(=O)OCC(=O)NCCCOc1cccc(CN2CCCCC2)c1` gave Vaccinia Venus -16.3% and Vaccinia mCherry -14.3%.
COc1ccc(C)cc1NS(=O)(=O)c1ccc2c(c1)n(C)c(=O)n2C was read as Vaccinia Venus -16.5%&-17.8% and Vaccinia mCherry -15.6%&-14.7%.
`Cc1ccc(CNC(=O)CN(c2ccc(C(C)C)cc2)S(=O)(=O)c2c(C)n[nH]c2C)cc1` gave Vaccinia Venus -11.1% and Vaccinia mCherry -19.9%.
`CCOc1ccc(CCNC(=O)c2cc3c(-c4ccccc4F)nn(C)c3s2)cc1OCC` gave Vaccinia Venus inconclusive and Vaccinia mCherry inconclusive.
